Assay outcomes deposited in PubChem by Southern Research Institute.
Mtb H37Rv = Mycobacterium tuberculosis H37Rv growth inhibition, cell based, confirmatory dose response (AID 1949); most inactive calls were filed without a number and no value below 0 was filed; inhibition, % at 10 µg/mL; hits with a dose series show IC50 in µg/mL; actives 1.6% (n = 100,000);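 active = confirmed in a dose series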;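 also: bacteria grown 7 days with compound before Alamar blue readout; 0% = untreated bacteria and 100% = reference antibiotic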
Numbers without * were called inactive; i = inactive.

SMILES,Mtb H37Rv
CCN(CC)C(=O)c1sc(NC(=O)c2cccnc2)c(C(=O)OC)c1C,i
COc1ccc(NC(=O)COc2nc3cc4c(nc3o2)CCC4)cc1,i
CCOC(=O)c1c(-c2ccccc2)nc(=O)[nH]c1-c1ccc(-c2ccc(F)cc2)o1,0.1%
COc1cccc(C(=O)O/N=C(\N)c2ccc([N+](=O)[O-])cc2)c1OC,i
Cc1ccc(C23CC4CC(CC(C(=O)N5CCCC5)(C4)C2)C3)cc1,5.5%
O=C(NCCSC1CCCCC1)c1ccco1,i
COc1ccc(-c2cc(=O)[nH]c(Sc3c(-c4ccccc4)c4cc(Cl)ccc4[nH]c3=O)n2)cc1,29.3%
COc1ccc(Nc2nc(N3CCCC3)nc(N3CCCC3)n2)c(OC)c1,0.6%
CCc1ccc(NC(=O)C(OC)c2ccccc2)cc1 (stereo not given),2.2%
COC(=O)c1c(NC(=S)Nc2ccc(C(=O)N3CCCCC3)cc2)sc2c1CCCCCC2,8.2%
Cc1ccc(SCCC(=O)Nc2ccccc2C(=O)NC2CCCCC2)cc1,i
O=C(c1ccncc1)c1ccc(Br)cc1,i
CCc1ccc(NC(=O)c2ccc3c(c2)OCO3)cc1,i
O=S1(=O)N=C(Nc2cccc(Cl)c2Cl)c2ccccc21,1.2%
N/C(=N\OC(=O)Cc1ccc(-c2ccccc2)cc1)c1cccnc1,i
COc1ccc(CC2=C(C(=O)c3ccccc3)C(=O)c3ccccc3C2=O)cc1,i
N/C(=N\OC(=O)C1CCCCC1)c1ccncc1,4.4%
S=C(c1ccc(Br)cc1)N1CCN(c2cccc(Cl)c2)CC1,1.6%
CCOc1ccc(N(C(C)C(=O)Nc2ccc(F)c(Cl)c2)S(C)(=O)=O)cc1 (stereo not given),i
COc1ccc(Cl)cc1NC(=O)c1ccccc1NC(=O)c1ccco1,i
Cc1ccc(-c2noc(-c3ccc(C)cc3C)n2)cc1,i
Cc1cc(C)c(OCCN2CCCC(C)C2)c(Br)c1 (stereo not given),3.6%
COc1ccccc1N1CCN(C(=O)c2ccc(S(=O)(=O)N3CCOCC3)cc2)CC1,i
CC(C)(C)NCc1ccccc1OCc1cccs1,i
CS(=O)(=O)N(CCC#N)Cc1ccc(C=O)o1,0.7%
COc1cc(C(=O)Nc2ccc3c(c2)CCN3C(C)=O)cc(OC)c1OC,i
CCOc1ccccc1NC(=S)NC(=O)c1sc2ccccc2c1Cl,i
Cc1cc(=O)[nH]c(Nc2ccc(N(C)C)cc2)n1,i
CCc1nnc(NC(=O)CSc2nc(C)cc(C)c2C#N)s1,i
CC(=O)NC(c1ccco1)c1cc([N+](=O)[O-])c2cccnc2c1O (stereo not given),i
O=[n+]1cc(-c2cccc(C(F)(F)F)c2)n([O-])c2c1CCC2,i
COC(=O)Cc1ccc(NC(=S)NCc2ccc(OC)cc2)cc1,i
COc1ccc(CCNC(=O)c2ccc(C)cc2C)cc1,12.0%
O=C(c1ccc(NC(=S)Nc2ccc3c(c2)OCO3)cc1)N1CCOCC1,i
Cc1cc(C)nc(NS(=O)(=O)c2ccc(NC(=O)c3oc4ccccc4c3C)cc2)n1,1.1%
CCc1ccc(OCc2nc(-c3ccccn3)no2)c(Br)c1,i
Cc1nc(SCC(=O)Nc2ccc3c(c2)OCCO3)c2c3c(sc2n1)CCC3,2.5%
O=C(c1ccccc1Cl)N1CCN(c2ccc([N+](=O)[O-])c(N3CCCC3)c2)CC1,2.5%
CN(CCc1ccccn1)C(=S)Nc1ccc(Cl)cc1Cl,i
CC(=O)Nc1ccc(NC(=O)c2ccc(N(C)S(=O)(=O)c3ccc(C)cc3)cc2)cc1,i
CC(NC(=O)c1ccc(Cl)cc1)c1nnc(SCCOc2ccccc2)n1C (stereo not given),i
Cc1cccc(NC(=O)CCN2CCc3ccccc3C2)c1,i
COC(=O)c1cc(C)sc1NC(=S)N1CCCCCC1,3.5%
CCCCNC(=O)c1ccccc1I,i
O=C(NC(C(=O)O)C12CC3CC(CC(C3)C1)C2)c1cccs1 (stereo not given),0.6%
COC(=O)Cc1c(C)c2ccc(O)c(C)c2oc1=O,i
CCc1ccc(S(=O)(=O)NC(=S)NC2CCCCC2)cc1,i
O=C(NC(=S)Nc1ccc2oc(-c3cccnc3)nc2c1)c1ccc(Cl)cc1,i
S=C(Nc1ccc2c(c1)OCO2)Nc1ccccc1-c1ccccc1,i
Cc1c(C)c2ccc(OCC(=O)N(C)c3ccccc3)c(C)c2oc1=O,i
C=CCn1c(=O)c2c3c(sc2n2c(Nc4ccccc4)nnc12)CCCC3,3.7%
COc1ccc(S(=O)(=O)N(C)CC(=O)NC2CCCCCC2)cc1,0.8%
O=C(O)c1ccc(Cl)c(NC(=S)NC(=O)c2ccc3ccccc3c2)c1,i
O=C1c2ccccc2C(=O)N1CCCCN(C(=O)c1ccc(F)cc1)c1ccc(Cl)cc1,5.8%
COc1ccc(N2C(=O)CC(Sc3ccccn3)C2=O)cc1 (stereo not given),i
O=c1[nH]c(CSc2nnc(-c3cccnc3)n2-c2ccccc2)nc2ccccc12,i
C=CCNc1nc(C)c(C(=O)OCC)s1,i
O=C(CS)Nc1cccc(Br)c1,i
CCC(CC)C(=O)N1CCc2ccccc2C1,i
COc1ccccc1OCCn1cc(/C=C2/SC(=S)N(c3ccccc3)C2=O)c2ccccc21,i

Nothing new here: entries from further up.
SMILES,Mtb H37Rv
CCC(CC)C(=O)N1CCc2ccccc2C1,i
COc1ccccc1OCCn1cc(/C=C2/SC(=S)N(c3ccccc3)C2=O)c2ccccc21,i

Back to the main list; the 2 compounds before the break are reprinted first.
SMILES,Mtb H37Rv
CCC(CC)C(=O)N1CCc2ccccc2C1,i
COc1ccccc1OCCn1cc(/C=C2/SC(=S)N(c3ccccc3)C2=O)c2ccccc21,i
CCOc1ccc(C(=O)N2CCC(Cc3ccccc3)CC2)cc1,4.4%
COc1cc(NC(=O)c2ccccc2)c(OC)cc1NC(=O)Cc1ccccc1,i
C=CCSc1nc2sc3c(c2c(=O)n1-c1ccc(OC)cc1)CCCCC3,i
CN(C)Cc1cc(CN(C)C)c(O)c(-c2ccccc2)n1,i
CCC(=O)Nc1cc(Cl)ccc1OC,12.1%
O=C(c1ccccc1)c1ccc(OCCCCN2CCCCC2)cc1,i
Oc1ccc(-c2csc(Nc3ncccn3)n2)cc1,i
COc1ccc(/C(N)=N/OC(=O)CCC2CCCC2)cc1,0.5%
NC(=O)CSc1ncnc2sc(-c3ccccc3)cc12,i
COc1cccc(CNC(=S)Nc2cc(OC)ccc2OC)c1,i
CCc1cc(NC(=O)COc2ccc3oc(=O)cc(C)c3c2)ccc1Br,i
COc1ccccc1C(=O)Nc1ccccc1CO,i
Cc1ccc(F)c(NC(=O)c2cnn3c(C(F)F)cc(-c4ccccc4)nc23)c1,i
CCn1c(SCC(=O)Nc2cc(C)ccc2OC)nnc1C(C)NC(=O)c1ccccc1Br (stereo not given),i
CS(=O)(=O)N1CCN(c2ccc(NC(=S)NC(=O)c3ccc(Cl)c(Cl)c3)cc2)CC1,i
COc1cc(/C=N/N=C2/NC(=O)C(CC(=O)Nc3ccc(Cl)c(Cl)c3)S2)ccc1O (stereo not given),i
Cc1ccc(C(=O)Nc2c(C(=O)N3CCC(C(N)=O)CC3)cnn2-c2ccccc2)cc1,i
COc1ccc(N2C3=C(C(=O)CC(C)(C)C3)C(c3ccc(OC)c(OC)c3)C3=C2CC(C)(C)CC3=O)cc1,i
COc1cc(C=O)cc(I)c1OCc1ccccc1C#N,i
CCC(C)NC(=O)C(C)Oc1ccc(Br)cc1 (stereo not given),i
CCCCNS(=O)(=O)c1ccc(NC(=O)C(C)Oc2ccccc2)cc1 (stereo not given),i
Nc1nc(NCc2c(F)cccc2Cl)nn1-c1ccccc1,i
O=C(ON1C(=O)c2ccccc2C1=O)c1ccccc1I,i
O=C(CSCc1ccc(Cl)cc1)Nc1ccc2c(c1)OCCO2,i
O=C(CSc1ccc(Cl)cc1)Nc1ccc2oc(=O)ccc2c1,21.5%
O=C(Nc1ccc(-c2cn3ccccc3n2)cc1)c1ccccc1F,1.2%
CNc1nc(SC(C)C(=O)Nc2ccc(Cl)c(Cl)c2)nc(N2CCOCC2)n1 (stereo not given),i
Cc1cc(C)c(NC(=S)NC(=O)CCCOc2ccccc2)c(Cl)c1,4.0%
CCn1c(SCC(=O)Nc2ccccc2C(C)C)nnc1-c1ccc(Cl)cc1,i
COC1(c2ccccc2)CC1(Br)Br (stereo not given),0.3%
CCOC(=O)c1c(C(C)(C)C)oc2ccc(OC(=O)c3ccco3)cc12,i
O=C(c1ccc(-c2cccc(C(F)(F)F)c2)o1)N1CCOCC1,0.3%
CCOC(=O)c1c(N2C(=O)C3C4C=CC(C4)C3C2=O)sc2c1CCC(C)C2 (stereo not given),i
O=C(Nc1scc(-c2cccs2)c1C(=O)O)c1ccccc1Cl,1.2%
CCN(CC)CCCCOc1cc(C)ccc1C(C)(C)C,14.0%
CC1CCc2c(sc(NC(=O)c3ccccc3F)c2C(=O)Nc2cccc([N+](=O)[O-])c2)C1 (stereo not given),0.2%
O=C(Nc1cccc([N+](=O)[O-])c1)c1cnccn1,i
CCn1c(SCC(=O)Nc2c(C)cc(C)cc2C)nnc1-c1ccccc1C,i
CCC(=O)Nc1cccc(C(=O)OCC(=O)c2ccccc2Cl)c1,i
CC(C)(C)c1ccc(Oc2c(C(F)(F)F)oc3cc(OCC(=O)O)ccc3c2=O)cc1,i
COc1ccc(C(=O)CSc2nc(C)ccc2C#N)cc1OC,i
Cc1ccc(NS(=O)(=O)c2ccc(NC=O)cc2)cc1,1.1%
CC1(C)CC(NC(=O)C(=O)Nc2ccccc2)CC(C)(C)N1,3.3%
COC(=O)c1c(C)oc2ccc(OCC#N)cc12,i
COc1ccc(CNC(=S)Nc2ccccc2C(F)(F)F)cc1,i

Next section, overlapping the part above by two compounds.
SMILES,Mtb H37Rv
COC(=O)c1c(C)oc2ccc(OCC#N)cc12,i
COc1ccc(CNC(=S)Nc2ccccc2C(F)(F)F)cc1,i
CCCn1c2ccccc2c2nnc(SCC(=O)Nc3nnc(SCC)s3)nc21,i
Cc1ccc(NC(=S)NCCN(C)C)cc1Cl,i
CC1CN(C(=O)c2ccc3c(c2)OCO3)CC(C)O1 (stereo not given),i
COc1ccc(-c2nnc(SCC(=O)Nc3ccc(Br)c(C)c3)o2)cc1,i
COc1ccccc1C(CCNCc1ccccc1)c1ccco1 (stereo not given),i
CC1(c2ccccc2NC(=O)Nc2cccc3ccccc23)CC1,18.4%
CCOC(=O)c1c(NC(=O)CNC(C)CC)sc2c1CCCC2 (stereo not given),17.4µg/mL*
CC1(C)CC(CCc2nc(=S)[nH][nH]2)C(=O)O1 (stereo not given),i
O=[N+]([O-])c1cc(Cl)ccc1NCCCO,i
CCOC(=O)N1CCN(CC(O)COC(C)C)CC1 (stereo not given),0.4%
Cc1cc(OCC(O)CN2CCN(c3ccc(F)cc3)CC2)ccc1C(C)C (stereo not given),11.7µg/mL*
COC(=O)c1ccccc1NC(=O)CN(c1ccccc1C)S(=O)(=O)c1ccc(C)cc1,i
Cc1ccc(OCC(=O)Nc2cccc(-c3nc4cc(C)ccc4o3)c2)c(C)c1,5.5%
COCCSc1ccccc1C(=O)Nc1ccc2c(c1)OCCO2,i
O=C(Nc1ccc(C(F)(F)F)cc1)C1COc2ccccc2O1 (stereo not given),37.9µg/mL*
COC(=O)c1ccc(NC(=O)CSc2nc(C(F)(F)F)cc(=O)[nH]2)cc1,i
CC(C)NC(=O)CC1Sc2ccccc2NC1=O (stereo not given),i
Fc1ccc(Nc2ncnc3ccc(I)cc23)cc1,13.1%
O=C(COc1ccccc1)Nc1cccc(Br)c1,i
CCOc1ccc(NS(=O)(=O)c2ccc(NC(=O)c3ccco3)cc2)cc1,2.2%
Cc1ccc(N(CC(=O)NCCc2ccccc2)S(=O)(=O)c2ccc(F)cc2)cc1,i
CS(=O)(=O)N(CC(=O)N1CCN(Cc2ccccc2)CC1)Cc1ccccc1,i
NC(=O)c1ccccc1NC(=O)c1cccc(Cl)c1Cl,21.9%
CCOc1ccccc1C(=O)Nc1nc2ccc(S(=O)(=O)N3CCCC3)cc2s1,i
COc1ccc(-n2c3c(cc(C(=O)NCc4ccc5c(c4)OCO5)c2=O)C(=O)CC(C)(C)C3)cc1,i
COc1cc2nc(/C=C/c3ccco3)oc(=O)c2cc1OC,i
Cc1cc(OCCCNCCN)ccc1C(C)C,i
Cc1oc(C(C)(C)C)c(COc2ccccc2)c1C(=O)O,i
O=C(COc1ccccc1)Nc1ccc(S(=O)(=O)Nc2ncccn2)cc1,i
COc1ccccc1C(=O)NC(=S)Nc1cccc2ncccc12,i
COc1ccc(CNC(=O)c2ccc(NS(C)(=O)=O)cc2)cc1,i
COc1ccc(OC)c(NC(=O)NNC(=O)C(C)Oc2ccc(Cl)cc2Cl)c1 (stereo not given),i
COc1cccc(NC(=S)Nc2ccccc2C(F)(F)F)c1,i
O=C(Nc1cccc(Cl)c1)Nc1ccc2c(c1)OCO2,i
O=C(NCc1cccc2ccccc12)c1ccccc1Cl,4.4%
Cc1cc(OCC(=O)Nc2ccc(S(=O)(=O)N3CCCCCC3)cc2)ccc1Cl,i

This is a subset; rates above refer to the full screens.
